Compound activity: PubChem, several laboratories
HNF4A DNA FP: change in binding of human HNF4A to DNA, primary screen, biochemical, fluorescence polarization, FITC-DNA | activity change, % at 10 µM | hit rate 0.3% among 360,000 | 1 h | AID 1224865, 2016; in the data active = activity change above about 30%, passing the limit was not always enough;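 also: controls were the assay level and a saturating level of protein; the project sought stronger binding though the title names inhibitors; some compounds called inactive have numbers as strong as hits; positive values seem to mean higher polarization but the record does not say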
UCH37 inh: inhibitors of human UCH37 deubiquitinase, primary screen, biochemical, Ub-AMC cleavage, fluorescence | Ubiquitin carboxyl-terminal hydrolase isozyme L5 (Homo sapiens), Q9Y5K5 | inhibition, % (no concentration beside the values) | hit rate 0.33% among 330,000 | purified proteasome/UCH37 | AID 588478, 2011;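 active = mean of two replicates above 20%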;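 also: 0% = compound-free wells with enzyme and 100% = wells lacking proteasome; stock transfer was 100 nL into about 20 µL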
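Schedule: 30 min plus 25 min, room temperature / Material: human UCH37 within purified proteasomes / Technique: AMC fluorescence intensity at 355/460 nm / Buffer or medium: pH 7.4 Tris-HCl (50 mM) with ovalbumin, ATP-MgCl2, DTT / Controls: wells without proteasome as full block, compound-free enzyme plus substrate as uninhibited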
E coli growth: E. coli growth inhibition, primary screen, OD600 | Escherichia coli growth, 23 h; active compounds read low | hit rate 0.21% among 330,000 | OD600 absorbance (no concentration beside the values);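 active = OD600 absorbance below the run mean of sample wells minus 3.6 SD, in any replicate, cut at about 0.56 in these data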;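 also: stock transfer was 300 nL into about 60 µL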
B2AR ag: beta2AR agonists driving receptor internalization, primary screen, cell-based, FAP fluorogen, flow cytometry; Beta-2 adrenergic receptor (Homo sapiens), P07550; Am2.2-beta2AR cells; reference of the scale not given here; response, % (no concentration beside the values); hit rate 0.43% among 340,000; AID 504454, 2011;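 active = response above a set limit, near 3 SD of response in nonfluorescent compounds, cut at about 42% in these data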;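 also: stock transfer was 100 nL into about 11 µL; a reference agonist was the positive control; negative values mostly stem from fluorescent compounds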
Bfl-1 A1 inh: caspase 3/7 activation in MEF A1-2A-BIM cells, primary screen, A1 inhibitor project, cell-based, luminescence, HTS. caspase activation, % (concentration not given with the values). hit rate 0.066% among 330,000. AID 2462, 2010. Caspase-Glo 3/7 luminescence, 3 h; percent of clofoctol response, vehicle zero;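 active = over half of replicate activation scores above 10%, or exactly half above 10 with the replicate mean above 10; inconclusive = replicate mean below 10 yet half the replicates above 10; inactive = over half of replicates below 10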;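 also: wells of about 30 µL received 50 nL stock; many hits fall short of the cut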
Vif TR-FRET: inhibitors of Vif binding to APOBEC3G peptide, primary screen, biochemical, TR-FRET, GST-Vif 1-94, biotin-A3G peptide, dose response retest (AID 1117319); one-dose inhibition, %; IC50 in µM for titrated hits; Virion infectivity factor (Human immunodeficiency virus type 1 group M subtype B (isolate …; TR-FRET GST-Vif / biotin-A3G peptide binding; higher % means a stronger effect; test concentration not given here; strong numbers were not always called active; hit rate 0.57% among 260,000;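 active = above the screen mean plus three standard deviations and confirmed in dose response; inconclusive = results disagree or hit not tested in dose response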;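 also: Vif residues 1-94 fused to GST binding biotinylated APOBEC3G peptide 110-148; 0% = full assay without inhibitor and 100% = GST in place of GST-Vif; retest series ran down from 100 µM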
LANA-H2A inh: blockers of LANA interaction with H2A/H2B – biochemical, FP readout, HTS, primary screen; inhibition, % (no concentration beside the values); hit rate 0.6% among 320,000; AID 2629, 2010; Protein LANA1 (Human herpesvirus 8 type P (isolate GK18)), Q9QR71; cell-free LANA-H2A/H2B peptide, fluorescence polarization; in the data active = inhibition mostly above about 10%, no sharp cut-off; inactive = mostly below about 6.7%;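 also: stock transfer was 7.5 nL into about 10 µL; 0% = median of vehicle wells and 100% = median of positive control wells; one replicate is shown; the record names a cut of 25% in any replicate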
Target sequence (Q9QR71 whole entry, looked up): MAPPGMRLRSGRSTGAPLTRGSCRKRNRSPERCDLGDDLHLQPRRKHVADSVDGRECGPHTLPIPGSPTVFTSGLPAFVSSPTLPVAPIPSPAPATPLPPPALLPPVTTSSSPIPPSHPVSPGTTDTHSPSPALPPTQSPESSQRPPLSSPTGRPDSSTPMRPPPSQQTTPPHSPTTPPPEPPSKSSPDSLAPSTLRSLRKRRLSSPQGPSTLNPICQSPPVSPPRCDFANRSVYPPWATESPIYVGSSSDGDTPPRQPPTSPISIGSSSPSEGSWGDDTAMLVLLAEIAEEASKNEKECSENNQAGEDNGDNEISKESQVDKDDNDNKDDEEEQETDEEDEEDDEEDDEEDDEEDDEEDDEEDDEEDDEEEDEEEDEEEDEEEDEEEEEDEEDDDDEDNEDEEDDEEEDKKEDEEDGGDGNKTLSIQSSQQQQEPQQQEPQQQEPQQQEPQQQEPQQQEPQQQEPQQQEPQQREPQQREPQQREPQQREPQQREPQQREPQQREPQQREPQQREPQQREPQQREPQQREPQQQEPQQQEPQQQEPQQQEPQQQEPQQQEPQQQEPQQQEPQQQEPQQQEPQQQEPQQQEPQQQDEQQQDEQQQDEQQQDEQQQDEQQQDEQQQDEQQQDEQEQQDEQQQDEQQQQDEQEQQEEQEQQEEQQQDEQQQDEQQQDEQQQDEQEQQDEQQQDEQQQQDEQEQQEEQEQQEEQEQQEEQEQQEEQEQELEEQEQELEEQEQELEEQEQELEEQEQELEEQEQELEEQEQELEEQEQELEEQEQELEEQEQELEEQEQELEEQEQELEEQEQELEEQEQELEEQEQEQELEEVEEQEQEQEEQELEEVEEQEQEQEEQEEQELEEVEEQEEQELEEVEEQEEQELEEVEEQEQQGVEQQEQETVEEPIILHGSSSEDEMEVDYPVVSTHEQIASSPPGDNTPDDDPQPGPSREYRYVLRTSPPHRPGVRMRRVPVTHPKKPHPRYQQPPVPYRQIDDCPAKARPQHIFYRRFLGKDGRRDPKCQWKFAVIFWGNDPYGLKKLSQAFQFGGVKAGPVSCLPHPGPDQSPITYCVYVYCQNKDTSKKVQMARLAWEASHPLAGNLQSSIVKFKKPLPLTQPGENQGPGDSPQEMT
* = called active by the depositor; i = inactive; ? = inconclusive; . = not tested or not shown; & = joins results of further samples; ! = repeats disagree.

SMILES	HNF4A DNA FP	UCH37 inh	E coli growth	B2AR ag	Bfl-1 A1 inh	Vif TR-FRET	LANA-H2A inh
COC(/C=C/Nc1ccc(Br)cc1)=C(C#N)C#N	1.4	2.1	0.68	3	0.2	4%	-0.7
COCC(=O)N/N=C\c1cccc(OC)c1OC/C=C/c1ccccc1	7.7	.	.	7	1.2	.	0.9
C=CCN1CC(=O)N2C(c3ccccc3)c3[nH]c4ccccc4c3C[C@H]2C1=O (stereo not given in full)	1.3	0.3	0.68	-8	0.5	2%	0.7
O=C(Nc1ccccc1N1CCOCC1)c1cnccn1	-1.4	.	.	5	1.3	19%	-4.3
COc1cc(C(=O)NCC(=O)N/N=C/c2ccco2)cc(OC)c1OC	-0.7	.	.	4	-0.1	.	-1.9
CS(=O)(=O)c1ccc(Cl)c(NC(=O)Cc2c(F)cccc2Cl)c1	-2.1	1.2	0.69	-2	0.2	2%	-17
COCCCn1c(C23CC4CC(CC(C4)C2)C3)n[nH]c1=S	5.2	0.9	0.63	5	1.1	.	-1.3
Cc1ccccc1-c1nc(C#N)c(NCc2ccco2)o1	-1.3	-16	0.7	-5	-0.3	3%	-5.6
S=C(c1ccc(-c2ccc(Cl)cc2Cl)o1)N1CCCC1	1.9	5.3	0.68	-4	-0.7	33%	-1.1
CN(N=Nc1cccc([N+](=O)[O-])c1)c1ccccc1	-2.6	6.6	0.7	8	-4.8	-7%	0.0
CC(=O)N1[C@H](Cc2ccccc2)C=C[C@]1(C)C(=O)NCCc1c[nH]c2ccccc12	1.0	2.3	.	-8	-2.9	12%	-11
Cc1cc(NC(=O)CN(C)S(=O)(=O)c2cccc(Cl)c2)no1	1.6	0.8	0.66	-2	-0.5	-4%	-6.3
CCOc1ccc(C2Nc3ccc4ccccc4c3-c3c2c(=O)oc2ccccc32)cc1 (stereo not given)	4.4	i	0.69	14	-0.6	-6%	-1.4
COCCCNC(=O)C(CC(N)=O)NC(=O)OCc1ccccc1 (stereo not given)	-4.6	5.2	0.66	-2	-0.3	3%	2.7
Cc1ccc(C(=O)Nc2ccc(C(=O)N3CCCCC3)cc2)o1	1.3	1.3	0.71	-10	-13	-1%	-4.3
CCOCCCNC(=O)C(NC(=O)c1ccc(NC(C)=O)cc1)c1ccc(Cl)cc1 (stereo not given)	1.1	2.8	0.69	13	2.3	.	-1.8
O=C1CC(NS(=O)(=O)c2cc(F)ccc2F)CN1c1cccc(F)c1 (stereo not given)	0.8	2.7	0.62	-3	-0.3	8%	3.3
O=C(NCc1ccccn1)c1cn(-c2ccccc2)nc1-c1ccc(Cl)cc1	-2.8	0.8	0.67	-30	-1.1	?	.
CCCN1C(=O)/C(=C/c2c(NCCCOCC)nc3c(C)cccn3c2=O)SC1=S	50*	7.0	0.78	-426	.	-5%	.
COc1ccc(NC(=O)c2sc3ncn(CC(=O)N4CCCCC4)c(=O)c3c2C)cc1OC	4.2	7.8	0.7	-3	-0.2	.	6.9
O=S(=O)(NCCc1ccncc1)c1cc(Br)ccc1F	3.6	3.5	0.71	4	0.6	5%	0.8
CCN1C2OC3OC4C(OC3OC2N(CC)S1(=O)=O)N(CC)S(=O)(=O)N4CC (stereo not given)	-3.1	2.5	0.67	2	0.9	.	0.8
Cc1ccc(Cl)cc1NC1=C/C(=N\S(=O)(=O)c2cccs2)c2ccccc2C1=O	-3.7&-0.1	43*	0.71&0.71	45*!	0.6	-2%&2%	2.6
CC(=O)N1N=C2c3ccccc3CCC2C1c1cccs1 (stereo not given)	0.9	4.9	0.64	-1	0.1	?	1.2
O=c1ccc(/C=C/c2ccccc2)nn1Cc1ccccc1	-2.2	-25	0.69	14	0.4	6%	-2.0
Continued:
SMILES	HNF4A DNA FP	UCH37 inh	E coli growth	B2AR ag	Bfl-1 A1 inh	Vif TR-FRET	LANA-H2A inh
c1cncc(-c2nc(N3CCOCC3)c3ccccc3n2)c1	2.0	3.5	0.65	-9	0.7	6%	-4.9
CCOc1ccc2oc(C(=O)N3CC(C)OC(C)C3)c(C)c2c1 (stereo not given)	-3.8	1.5	0.71	-11	0.6	.	2.1
COc1cccc(/C=N/NC(=O)C[n+]2ccccc2)c1OC	-0.1	.	.	-3	-0.9	9%	-3.7
COCCN(C(=O)CNC(=O)c1cccs1)C(C(=O)NC(C)(C)C)c1ccccc1 (stereo not given)	-3.7	3.8	0.69	-8	?	14%	5.5
CCn1c(CCCOc2ccc(Cl)cc2Cl)nnc1SCC(=O)Nc1cccc(F)c1	-0.1	2.9	0.67	-2	0.3	9%	5.3
COc1ccc(C(=O)N2CCN(c3ccc(C(C)=O)cc3)CC2)cc1S(=O)(=O)N1CCCC1	-3.5	4.7	0.68	12	0.6	.	0.0
COc1ccc(C(=O)NCC(O)CN2CCOCC2)cc1[N+](=O)[O-] (stereo not given)	-1.9	3.1	0.62	5	1.2	3%	2.9
CC(C)(C)Nc1nc(N2CCCC2)nc(N2CCCC2)n1	3.0	-1.3	0.57	19	0.9	28%	-2.4
CNC(=S)N/N=C1\CC(c2ccccc2)Oc2ccccc21 (stereo not given)	2.4	.	.	7	-0.8	7%	3.5
CC(=O)c1ccc(NC(=O)CCc2c(C)nn(-c3ccc(N4CCOCC4)nn3)c2C)cc1	-0.2	4.5	0.65	-4	-1.0	.	3.3
Cc1cc(C)cc(NC(=O)C2CCCN(S(=O)(=O)c3cnc[nH]3)C2)c1 (stereo not given)	-2.0	8.9	0.76	2	-1.1	1%	0.7
Cc1nn(C)c(Sc2ccccn2)c1[N+](=O)[O-]	-1.3	1.9	0.65	6	0.2	-3%	-1.8
C[C@H](CO)N1C[C@H](C)[C@@H](CN(C)C)Oc2c(NS(=O)(=O)c3cccs3)cccc2C1=O	-0.8	-1.5	0.7	9	0.3	-1%	.
Cc1ccc(C(=O)N/N=C2/NC(=O)CC(C(=O)Nc3ccccc3)S2)cc1 (stereo not given)	-1.1	3.4	0.67	4	-0.7	?	-1.4
CCOC(=O)C1(C/C(C)=N/NC(N)=O)CC(C)OC1=O (stereo not given)	-1.6	.	.	-33	-1.0	.	.
CN(C(=O)c1cccs1)C1(C)CCS(=O)(=O)C1 (stereo not given)	1.9	0.0	0.71	-2	0.0	0%	3.7
Cn1ccc(NC(=O)c2ccc(Cl)cc2)n1	-5.7	1.0	0.64	-3	-2.6	-10%	-1.6
O=c1cc(C=NNc2ccccc2)[nH]c(=O)[nH]1	2.8	.	.	-2	.	-8%	.
COc1ccc2cc3cc(C(=O)NCCCN4CCc5ccccc5C4)sc3nc2c1	5.4	-242	0.67	-3	-2.1	.	.
CSc1ccc(/C=C/C(=O)OCC(=O)c2ccc[nH]2)cc1	1.5	-33	0.66	0	-2.0	-6%	-1.0
COc1ccc(OCCCC(=O)NCCc2ccc(OC)c(OC)c2)cc1	1.4	-2.3	0.69	-1	1.0	.	3.2
COC(=O)CNC(=O)CN1C(=O)N(c2cccc(Cl)c2)C(N(O)C(=O)Nc2cccc(Cl)c2)C1(C)C (stereo not given)	0.2	4.7	0.75	9	0.3	-3%&9%	-3.3
COc1cc(/C=C2\C(=N)N3N=C(CC(=O)N4CCOCC4)SC3=NC2=O)cc(OC)c1OC	0.4	3.7	0.66	4	-0.6	.	-3.3
O=C(Cc1ccccn1)Nc1ccccc1	-2.6	6.0	0.72	1	-0.5	3%	6.4
COC(=O)C1=C(C)N(Cc2ccccc2)C(=NCCc2ccccn2)N[C@H]1c1cccc(F)c1	-2.7	4.4	.	6	1.1	.	4.1
(listing goes on)
SMILES	HNF4A DNA FP	UCH37 inh	E coli growth	B2AR ag	Bfl-1 A1 inh	Vif TR-FRET	LANA-H2A inh
CCOC(=O)C1=C(COC(=O)CCOc2ccc(OCC)cc2)NC(=O)NC1C (stereo not given)	3.0	3.5	0.68	18	-1.1	-11%	1.0
COC/C=C/C1=CC2=CC(=O)C(C)(OC(=O)c3cnc4ccccc4n3)C(=O)C2=CN1c1ccc(OC)cc1 (stereo not given)	1.7	-1.6	.	1	0.2	.	3.3
Oc1cc2ccccc2nc1-c1ccccc1Cl	-3.4	-37	0.67	1	0.7	1%	2.1
COCCn1c(C)cc(O)c(C(=O)Nc2cccc(Cl)c2)c1=O	1.3	-1.7	0.65	-4	-0.6	.	0.5
CN(c1ccccc1)S(=O)(=O)c1cccc(C(=O)OCC(=O)NCCCN2CCCC2=O)c1	-1.0	1.5	0.65	-5	0.4	-5%	-2.4
CCOc1cc(N2CCOCC2)c(OCC)cc1NC(=O)COC(=O)/C=C/c1ccc(OC(F)F)cc1	-0.1	2.0	0.65	4	-0.7	-4%	2.1
COc1cc2c(cc1OC)CN(C(=O)Cc1c(F)cccc1Cl)CC2	0.0	0.6	0.69	3	-1.0	-6%	3.6
COc1cccc(NC(=O)CN(C)CC(=O)Nc2ccc(Br)cc2)c1	5.1	-0.3	0.7	-4	-0.3	0%	-4.5
CC(C)(C)NC(=O)NC(=O)COC(=O)c1ccc(OC(F)(F)F)cc1	-2.2	-0.3	0.66	-1	-1.1	.	3.2
CC(C)OCCCn1c(=S)[nH]c2cc3c(cc2c1=O)OCO3	2.9	1.7	0.67	-2	-1.3	2%	2.8
O=C(COC(=O)c1cc(=O)[nH]c2ccccc12)Nc1ccc(Cl)cn1	5.5	-10	0.66	-3	0.9	2%	-6.0
O=P(Nc1ccccc1)(Nc1ccccc1)c1ccccc1	3.1	4.2	0.67	3	.	1%	.
COc1cc(OC)cc(C(=O)NCCn2ccc3ccccc32)c1	0.1	3.1	0.77	-11	-0.2	15%	-11
COCCn1cnnc1SCC(=O)Nc1sccc1C(N)=O	-2.7	1.4	0.71	1	0.2	?	4.6
COc1ccc(NC(=O)Nc2cc3oc4ccccc4c3cc2OC)cc1	1.3	-34	0.71	18	0.3	-4%	-3.4
Cc1c(CCOC(=O)C23CC4CC(CC(C4)C2)C3)sc[n+]1CC#N	1.1	3.8	0.68	27	-0.1	1%	-5.3
Cn1nnnc1Sc1ncnc2scc(-c3ccc(Br)cc3)c12	2.2	0.1	0.68	68*	-0.1	.	2.8
CC(NC(=O)C(=O)NN=C1CCC(C(C)(C)C)CC1)c1ccccc1 (stereo not given)	2.2	6.6	0.69	-5	-1.3	10%	-1.9
O=C(COc1ccccc1)Nc1cccc(-c2nc3cc4ccccc4cc3[nH]2)c1	4.7	i	0.63	29	-11	-1%	-4.3
c1ccc2c(c1)nc(N1CCOCC1)c1nnnn12	-9.7	-1.4	0.77	-7	.	-7%	-0.8
